# Source: PubChem (several laboratories)
# Bead autofluor: flagged as autofluorescent in microsphere protease counterscreen; compound autofluorescence counterscreen, microsphere flow cytometry; active compounds read high; fluorescence intensity (no concentration beside the values); hit rate 3.1% among 360,000;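 active = at least 3 SD above the mean of all compounds, about 16000 in these data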;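 note: 100 nL of 1 mM stock went into each well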
# BJeLR viability: kills HRASV12-expressing BJeLR cells; inhibition, % (concentration not given with the values); AID 1554; BJeLR (HRASV12) viability, CellTiter-Glo ATP luminescence, 48 h; reference of the scale not given here; hit rate 0.17% among 300,000;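 active = replicate mean above 50%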;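 note: 50 nL library stock added to about 25 µL; numbers are from one replicate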
# PrP 5UTR inh: inhibition of PrP 5' UTR reporter expression | cell-based PrP 5' UTR mRNA reporter, plate reader | inhibition, % (no concentration beside the values) | hit rate 0.35% among 340,000 | AID 488862;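 active = every replicate at 50% or more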;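 note: 0 = median of the neutral control wells; tested in H4 reporter cells; numbers are from one replicate; inactives centre near -14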
# Sa RN4220 lethal: S. aureus RN4220 growth inhibition; OD600, 16 h; inhibition, % (concentration not given with the values); hit rate 0.33% among 330,000; AID 1259311;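 active = z-score of -3 or lower and OD600 up to 0.18 on both plates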;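 note: plate controls were untreated cells for no effect and reference antibiotic for full effect; stock transfer was 100 nL into about 80 µL; one replicate is shown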
# ugtP null kill: compounds lethal to S. aureus RN4220 ugtP deletion mutant; AID 1259309; OD600 growth, 16 h; some inactives read as strong as hits; hit rate 0.54% among 330,000; growth inhibition, % (test concentration not listed);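 active = z-score under -3 and OD600 up to 0.15 on both plates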;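 note: plate controls were untreated wells for no effect and antibiotic for full effect; wells of about 80 µL received 100 nL stock; the first replicate is given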
# Mtb hypoxia inh: Mtb hypoxia fluorescent reporter inhibition; M. tuberculosis hypoxia-regulated fluorescent reporter, fluorescence; fluorescence inhibition, % (concentration not given with the values); hit rate 0.1% among 300,000;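 active = 35 to 45% if threefold the growth effect, above 45% if 1.5-fold the growth effect; inactive = the rest, general growth blockers included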;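 note: wells of about 50 µL received 100 nL stock; 0% = vehicle wells and 100% = reference inhibitor wells; whole bacteria with a GFP reporter of the hypoxia response; strong numbers were not always called active; many hits fall short of the cut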
# Mtb hypoxia inh growth: recorded beside Mtb hypoxia inh, whose call it bears; growth inhibition, %; measured here: M. tuberculosis growth (absorbance);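 0% = vehicle and 100% = reference antibiotic; read after six days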
# Active calls of the source: *; . = no result given.
SMILES,Bead autofluor,BJeLR viability,PrP 5UTR inh,Sa RN4220 lethal,ugtP null kill,Mtb hypoxia inh,Mtb hypoxia inh growth
CN(CC(=O)NCCc1ccc(S(N)(=O)=O)cc1)S(=O)(=O)c1cccc2nsnc12,4424,7,13,-2.5,-1,-2,-2
C=C1C[C@H]2[C@@H]3CCc4cc(OC)ccc4[C@H]3CC[C@]12C,4053,5,-10,.,.,.,.
Cc1ccc(S(=O)(=O)c2c(C)nn(C(C)(C)C)c2OC(=O)c2ccc(Br)o2)cc1,2475,0,-4,-6.5,-6,.,.
CCCNC(=O)NC(=O)CSc1cccc(C(F)(F)F)c1,4703,5,-25,2.4,4,5,6
COC(=O)c1cccc(C23CC4(C2)C(CN(C)C4c2ccccc2)C3c2ccccc2)c1 (configuration not stated),.,.,.,-4.1,-2,2,1
COc1ccc(OC)c(S(=O)(=O)Nc2ccc(O)c(Sc3ncn[nH]3)c2)c1,10374,-1,.,1.9,4,4,4
Cc1ccc(NC(=O)Nc2cccs2)cc1,3206,4,-51,5.3,-6,-7,2
Cc1cc(C)n(-c2ccc(NC(=O)C3CCN(Cc4cnc(C)s4)CC3)cc2)n1,5076,7,-5,.,.,.,.
COc1ccc(OC)c(N2C(=O)NC(=O)C(CCc3ccncc3)(CCc3ccncc3)C2=O)c1,7578,1,-19,-1.6,-1,-3,0
CCOC(=O)c1cnc(SCC(=O)NCc2cccs2)nc1N,9325,19,-10,0.3,-3,4,9
CN(C)CCNC(=O)c1cccn(Cc2cc(C(F)(F)F)cc(C(F)(F)F)c2)c1=O,3673,6,-10,5.4,-1,8,8
CCC(C(=O)NCc1ccco1)N(Cc1cccs1)C(=O)CNS(=O)(=O)c1ccccc1 (configuration not stated),9289,-4,-34,5.7,-1,15,11
CC(=O)NC(CCS(C)(=O)=O)C(=O)Nc1ccc2c(c1)OCO2 (configuration not stated),5518,1,-11,-13,2,4,1
CCC(C)(C)NC(=O)C(c1cccc(OC)c1)N(C(=O)c1ccn[nH]1)c1cccc(OC)c1 (configuration not stated),4269,-3,-26,4.0,3,18,7
CN1C(=O)Cc2cc(S(=O)(=O)NCCc3ccccc3)ccc21,3864,17,0,1.3,7,-6,7
CCn1c(=NC(=O)C2COc3ccccc3O2)sc2c(C)ccc(OC)c21 (configuration not stated),3667,13,-8,-1.5,12,5,7
CCOc1ccccc1N(CC(=O)NCc1ccccc1)C(=O)CCC(=O)Nc1cc(C)ccn1,4634,-1,-26,6.9,9,0,1
CC(C)n1c2ccccc2c2cc([N+](=O)[O-])ccc21,2257,-5,-20,.,.,.,.
CCCCN(CCCC)CCCNC(=O)CC1Oc2ccc(C)cc2NC1=O (configuration not stated),23832*,1,-12,2.7,6,15,3
COc1ccc(-c2ccc(CO)o2)cc1N,4147,-8,-39,3.4,1,11,2
O=[N+]([O-])c1ccccc1N/N=C\c1ccccc1F,4432,8,-167,.,.,.,.
CS(=O)(=O)N(CC(=O)Nc1cc(Cl)ccc1Cl)c1ccccc1,24006*,4,-26,5.9,-7,11,1
COc1ccccc1NC(=O)N1CCN(c2ccnc3cc(Cl)ccc23)CC1,4787,-2,-8,-1.0,2,-9,-5
Cc1ccc(/C=N/NC(=S)NCCc2ccccc2)s1,4496,4,-5,.,.,.,.
COC(=O)c1cc(C(=O)OCC(=O)N(C)C2CCS(=O)(=O)C2)cc([N+](=O)[O-])c1 (configuration not stated),4157,-17,-24,-2.2,-6,-11,3
COc1cccc(-n2nnnc2SCC(=O)Nc2ccc(NC(C)=O)cc2)c1,3913,6,-10,-0.8,8,0,10
COc1cccc(N=c2oc3c(C)ncc(CO)c3cc2C(N)=O)c1,.,-3,-10,7.8,11,-7,1
COC(=O)c1cc(C)nc(N)c1C#N,2870,4,-20,-1.9,4,.,.
CN(c1ccccc1)c1nc(N)c([N+](=O)[O-])c(Nc2cccc(F)c2)n1,3791,-5,-11,-4.3,-10,-9,9
Cc1ccc(N2C(=O)C3C(C2=O)C(C(=O)c2ccc(Cl)cc2)N2CCCC32)cc1 (configuration not stated),4427,2,-11,-0.7,-8,.,.
Cc1c(Cl)cccc1NC(=O)NN1CCN(C)CC1,4673,4,-11,-0.5,-5,2,0
COc1ccc(-c2noc(-c3cccc(OC)c3OC)n2)cc1OC,5509,3,-75,3.3,-3,6,2
Cc1cc(OCC(=O)OCC(=O)Nc2cc(S(=O)(=O)N3CCOCC3)ccc2Cl)ccc1Cl,3818,.,-29,3.1,1,1,5
COC(=O)NNC(=O)C(c1ccccc1)c1ccccc1,.,-2,-7,1.3,-2,11,0
CC(C)CN1CCC(=O)N([C@H](CSc2ccccc2)Cc2ccccc2)CC1,3519,0,-10,.,.,.,.
CCCNC(=O)N1C2CCC1C(C(=O)OC)=C(c1ccc(Cl)c(C(F)(F)F)c1)C2 (configuration not stated),.,.,.,2.0,-4,3,3
COC(CNS(=O)(=O)c1ccc(S(=O)(=O)N2CCCC2)cc1)OC,3337,5,-8,0.1,1,8,13
Cc1ccc(-n2nc3c(c2NC(=O)c2c(F)cccc2Cl)CS(=O)(=O)C3)cc1C,5380,4,-14,4.0,6,10,8
COC(=O)C1CC(O)CN1S(=O)(=O)c1cccs1 (configuration not stated),2124,-2,-28,-1.1,5,1,-5
NC(=O)CSc1nc2ccccc2c(=O)n1Cc1ccccc1,3868,4,-4,1.0,4,-3,7
O=C(CCCC(=O)Nc1cccnc1)Nc1cccnc1,2509,3,-20,-14,-2,4,8
CC(C)C(NS(=O)(=O)c1ccccc1)C(=O)OCc1cc([N+](=O)[O-])cc2c1OCOC2 (configuration not stated),2978,-14,-10,6.9,-5,5,-5
O=C(Nc1cccc([N+](=O)[O-])c1)N1CCCCCC1,4259,0,3,-4.3,1,4,8
COc1ccc(/C=N/NC(=O)c2ccncc2)cc1Cn1nc([N+](=O)[O-])c(Br)c1C,4683,-5,-17,.,.,.,.
Cc1ccc(C(=O)Nc2ccccc2C(=O)N2CCCCCC2)cc1,.,7,-7,2.7,5,1,0
O=c1ccc2cc(S(=O)(=O)NCc3ccccc3)ccc2[nH]1,4476,-10,-6,-5.9,9,2,3
COc1cc2c(cc1OC)C(C(=O)NC(C)C)C1CCCCN1C2=O (configuration not stated),4537,0,5,6.2,4,1,1
COc1ccc(C2c3ccc4ccccc4c3Oc3ncn(CCCO)c(=N)c32)cc1 (configuration not stated),3862,2,-8,-4.3,-24,11,10
COc1cc(C=NNc2snc(SC)c2C#N)ccc1O,.,.,.,3.2,-3,9,5
Cc1cc(C(=O)CSc2ncnc3ccccc23)c(C)n1C1CC1,2659,.,-45,2.4,-2,-6,1
CCOC(=O)C1=C(c2ccccc2)NC(=O)NC1c1cc(OCC)c(O)c([N+](=O)[O-])c1 (configuration not stated),3564,3,-11,-1.4,5,12,10
S=c1[nH]ccn1CCc1ccccc1,3842,7,.,4.0,-1,-5,-1
Cn1cc([N+](=O)[O-])c(C(=O)n2cccn2)n1,4195,-11,-25,2.3,2,0,2
O=C(O)c1cccc(CSc2n[nH]c(-c3ccc(Cl)cc3Cl)n2)c1,4025,-8,-28,0.6,5,2,12
COc1ccc(Nc2nc(N)nc(CN3CCN(c4ccc(F)cc4)CC3)n2)cc1,2030,3,-5,-1.3,0,7,4
Cc1ccc2c(c1)N(CC(=O)N1CCN(C3CCCCC3)CC1)C(=O)CO2,5993,-2,-5,-2.3,-6,16,2
NC(=O)C[C@H](NC(=O)c1ccc(Cl)cc1)C(=O)OCc1ccccc1,3693,.,-9,3.4,3,28*,64*
CCOc1ccc(NC(=O)COC(=O)c2n[nH]c3ccccc23)cc1,4548,.,-34,-0.4,-7,6,6
COC(=O)c1cccc(N(CC(=O)NC2CCCCC2)C(=O)CNC(=O)c2cccs2)c1,4015,-2,-18,4.8,4,4,6
COc1cc(CN2CCN(Cc3ccco3)CC2)cc(OC)c1,2909,0,-18,-0.4,5,10,-4

# 18 entries out of the list, arranged by number of heavy atoms, rising.
SMILES,Bead autofluor,BJeLR viability,PrP 5UTR inh,Sa RN4220 lethal,ugtP null kill,Mtb hypoxia inh,Mtb hypoxia inh growth
S=c1[nH]ccn1CCc1ccccc1,3842,7,.,4.0,-1,-5,-1
Cc1ccc(NC(=O)Nc2cccs2)cc1,3206,4,-51,5.3,-6,-7,2
COC(=O)C1CC(O)CN1S(=O)(=O)c1cccs1 (configuration not stated),2124,-2,-28,-1.1,5,1,-5
Cc1c(Cl)cccc1NC(=O)NN1CCN(C)CC1,4673,4,-11,-0.5,-5,2,0
Cc1ccc(/C=N/NC(=S)NCCc2ccccc2)s1,4496,4,-5,.,.,.,.
COC(=O)NNC(=O)C(c1ccccc1)c1ccccc1,.,-2,-7,1.3,-2,11,0
O=c1ccc2cc(S(=O)(=O)NCc3ccccc3)ccc2[nH]1,4476,-10,-6,-5.9,9,2,3
CCOC(=O)c1cnc(SCC(=O)NCc2cccs2)nc1N,9325,19,-10,0.3,-3,4,9
O=C(O)c1cccc(CSc2n[nH]c(-c3ccc(Cl)cc3Cl)n2)c1,4025,-8,-28,0.6,5,2,12
COc1cc2c(cc1OC)C(C(=O)NC(C)C)C1CCCCN1C2=O (configuration not stated),4537,0,5,6.2,4,1,1
CCn1c(=NC(=O)C2COc3ccccc3O2)sc2c(C)ccc(OC)c21 (configuration not stated),3667,13,-8,-1.5,12,5,7
CC(C)CN1CCC(=O)N([C@H](CSc2ccccc2)Cc2ccccc2)CC1,3519,0,-10,.,.,.,.
CCCNC(=O)N1C2CCC1C(C(=O)OC)=C(c1ccc(Cl)c(C(F)(F)F)c1)C2 (configuration not stated),.,.,.,2.0,-4,3,3
CN(CC(=O)NCCc1ccc(S(N)(=O)=O)cc1)S(=O)(=O)c1cccc2nsnc12,4424,7,13,-2.5,-1,-2,-2
CCOC(=O)C1=C(c2ccccc2)NC(=O)NC1c1cc(OCC)c(O)c([N+](=O)[O-])c1 (configuration not stated),3564,3,-11,-1.4,5,12,10
COC(=O)c1cccc(C23CC4(C2)C(CN(C)C4c2ccccc2)C3c2ccccc2)c1 (configuration not stated),.,.,.,-4.1,-2,2,1
CCC(C)(C)NC(=O)C(c1cccc(OC)c1)N(C(=O)c1ccn[nH]1)c1cccc(OC)c1 (configuration not stated),4269,-3,-26,4.0,3,18,7
COc1ccc(OC)c(N2C(=O)NC(=O)C(CCc3ccncc3)(CCc3ccncc3)C2=O)c1,7578,1,-19,-1.6,-1,-3,0
